Cruzain inh Det = cruzain (T. cruzi) inhibition with detergent; P25779; AID 1478; purified cruzain, Z-FR-AMC fluorescence, 0.01% Triton; Potency, µM, inactives show max response, negative = inhibition, most hits filed as inhibitors; actives 0.43% (n = 200,000); active means well fitted curve in the direction sought with a large enough effect; inconclusive means small, poorly fitted or top-dose-only effect, or another doubt; inactive means no such curve, though single readings can be large; an effect the other way counts as inactive or inconclusive;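 further: plate controls were neutral wells for no effect and buffer without enzyme for full effect; nearly all actives have a fitted effect of over 40% in size; top concentration of the series not given in the record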
Target sequence (P25779 123-467 limits assumed): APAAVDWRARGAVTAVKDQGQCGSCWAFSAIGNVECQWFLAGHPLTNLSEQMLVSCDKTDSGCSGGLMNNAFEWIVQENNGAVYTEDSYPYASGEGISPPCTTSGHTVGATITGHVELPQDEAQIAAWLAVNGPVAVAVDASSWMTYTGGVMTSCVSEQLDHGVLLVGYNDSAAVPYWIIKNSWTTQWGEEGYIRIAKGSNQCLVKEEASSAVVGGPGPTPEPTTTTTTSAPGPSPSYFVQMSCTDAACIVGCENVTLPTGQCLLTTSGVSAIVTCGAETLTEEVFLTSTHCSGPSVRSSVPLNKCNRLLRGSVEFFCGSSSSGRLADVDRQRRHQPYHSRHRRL
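Cruzain (1.5 nM) preincubated 15 min at RT with compound in 100 mM sodium acetate pH 5.5, 5 mM DTT, 0.01% Triton X-100. Reaction started with 2 uM Z-FR-AMC; AMC fluorescence (ex 360/em 450 nm) change over 60 s gave rate.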
Lassa entry inh = blocks Lassa virus binding to or entry into cells; AID 540256; Lassa virus pseudotype entry inhibition, cell reporter; control for the full effect not named in the record; Potency, µM (highest dose often 37.9 µM), for inactives: at the top dose activity change, negative = inhibition, actives largely listed as inhibitors; actives 1.2% (n = 300,000); active means well fitted inhibition curve with a large enough effect; inconclusive means small, poorly fitted or top-dose-only effect, or effect the other way; inactive means flat fitted curve, though single readings scatter; tested in HEK293 cells; further: on the % scale 0 is the no-effect control and ±100 the full control effect; nearly all actives have a fitted effect of over 50% in size; luciferase read-out
RE007 growth inh = less growth of the S. pombe RE007 Vpr strain; S. pombe RE007 Vpr strain, BacTiter-Glo ATP luminescence, 24 h; control for the full effect not named in the record; Potency, µM (top dose mostly 92.2 µM), for the others: at the highest dose activity change, negative = less growth; actives 0.21% (n = 360,000); AID 651644; active = well fitted falling curve with a large enough effect; inconclusive = small, poorly fitted or top-dose-only effect; inactive = no such curve, though single readings can be large or run the other way;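 further: on the % scale 0 is the no-effect control and ±100 the full control effect; nearly all actives have a fitted effect of over 50% in size; the assay follows cell death caused by Vpr and the record does not say whether a fall means rescue or toxicity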
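Fission yeast RE007 carrying one integrated HIV-1 vpr copy, seeded at OD 0.01 in PMG+AL medium with 23 nL pinned compound. Grown 24 h at 30 degrees; viability read by BacTiter-Glo luminescence after 5 min.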
Cruzain noTriton = inhibitors of Trypanosoma cruzi cruzain without detergent. P25779. purified cruzain, Z-FR-AMC fluorescence, no detergent. Potency, µM, without a hit: max response, negative = inhibition, hits mostly inhibitors. actives 2.3% (n = 200,000). AID 1476; active means well fitted curve in the direction sought with a large enough effect; inconclusive means small, poorly fitted or top-dose-only effect, or another doubt; inactive means no such curve, though single readings can be large; an effect the other way counts as inactive or inconclusive;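 further: plate controls were enzyme without inhibitor for no effect and buffer without enzyme for full effect; nearly all actives have a fitted effect of over 40% in size; top concentration of the series not given in the record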
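Detergent-free condition (0.00005% Triton X-100) in acetate buffer pH 5.5 with DTT. 1.5 nM enzyme and compound were pre-mixed 15 min, then 2 uM Z-FR-AMC substrate added; reaction progress from fluorescence change between first and third reads (60 s).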
SARS PLP yeast = inhibitors of SARS-CoV papain-like protease in yeast | S. cerevisiae expressing SARS-CoV PLpro, growth rescue; control for the full effect not named in the record | actives 0.19% (n = 330,000) | AID 485353 | Potency, µM (doses to about 32.9 µM), without a hit: top-dose activity, positive = growth rescue; further: 0% is about no effect; nearly all actives have a fitted effect of over 55% in size; growth read by luminescence after 48 h
2A StopGo = FMDV 2A StopGo reporter, luciferase signal | human cells with a luciferase reporter of 2A StopGo recoding; control for the full effect not named in the record | Potency, µM (doses to about 57.9 µM), for the others: at the top dose signal change, negative = less light | actives 1.2% (n = 410,000) | AID 1159524; active = well fitted falling curve with a large enough effect; inconclusive = small, poorly fitted or top-dose-only effect; inactive = no such curve, though single readings can be large or run the other way; tested in HEK293T cells; further: on the % scale 0 is the no-effect control and ±100 the full control effect; nearly all actives have a fitted effect of over 45% in size; luciferase light after 4 h
MARV entry inh = Marburg virus entry inhibition; Marburg virus pseudotyped entry inhibition, cell reporter; control for the full effect not named in the record; about a third of the inactives were read at about 46 µM; actives 1.8% (n = 300,000); AID 540276; Potency, µM (highest dose often 37.8 µM), for the others: top-dose activity change, negative = inhibition, actives largely listed as inhibitors; active = well fitted inhibition curve with a large enough effect; inconclusive = small, poorly fitted or top-dose-only effect, or effect the other way; inactive = flat fitted curve, though single readings scatter; tested in HEK293 cells; about a fifth of its hits are not listed in these tables; further: on the % scale 0 is the no-effect control and ±100 the full control effect; luciferase read-out
NS1 function inh = inhibitors of influenza NS1 protein function | S. cerevisiae slowed by influenza A NS1, growth recovery by OD600 | Potency, µM (titrated, usually from 46.1 µM), without a hit: top-dose activity, positive = more growth | actives 0.4% (n = 270,000); further: actives are rising curves; nearly all actives have a fitted effect of over 50% in size
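OD600 was taken as the measure of yeast growth restored by compound in an NS1-expressing S. cerevisiae strain. Cells had been washed out of glucose medium and diluted 1:100 into galactose -URA medium, pH 6.0.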
* hit, by the source's call; ? = inconclusive; nt = not tested or not shown; & = joins results of further samples; [ ] = dose if it differs, or a comment. Unless noted, the call rests on the fitted dose curve; in most records, active means well fitted rising curve with a large enough effect; inconclusive means small, poorly fitted or top-dose-only effect; inactive means no such curve, though single readings can be large or run the other way. Potency means the concentration at half of the fitted maximal effect. Rows were taken by chance; 4.8% or so of the library scored in one or more.

Second line of a record: Cruzain inh Det	Lassa entry inh	RE007 growth inh	Cruzain noTriton	SARS PLP yeast	2A StopGo	MARV entry inh	NS1 function inh
- COc1cc(C(=O)O)nc2ccc([N+](=O)[O-])cc12
  nt	9.7%	3.4%	nt	5.6%	0.9%	13.9%[46.1 µM]	nt
- O=C(C1CCC1)N1CCc2cc(S(=O)(=O)NCCN3CCN(c4ccccc4F)CC3)ccc21
  1.6%	15.8µM*	-9.1%	-4.0%	-4.8%	-21.8%	12.6µM*	-30.9%
- Cc1cccc(Nc2ncc3c(n2)CC(C)CC3=O)c1 (stereo not given)
  -7.2%	-13.5%	-12.6%	1.9%	-1.7%	38.2%[activator]	-14.6%	-15.3%
- CC(CNC(=O)C1CCCCC1C(=O)O)c1ccccc1 (stereo not given)
  0.9%	13.4%	-15.6%	-0.2%	7.6%	-19.1%	-4.3%	-0.9%
- O=C(CSc1nnc(NC2CCCCC2)s1)Nc1ccc(N2CCOCC2)cc1
  -4.0%	29.9%[14.3 µM]	6.1%	-1.8%	-0.9%	16.3%	-2.0%	20.6%
- COc1cc(-c2cc(C(=O)OCC(=O)NC3CC3)c3ccccc3n2)cc(OC)c1OC
  nt	15.6%[46.1 µM]	4.8%	nt	0.5%	-10.8%	3.1%[46.1 µM]	nt
- Cc1ccc(NC(=O)CSc2nc(-c3ccco3)cc(C(F)(F)F)n2)cc1C
  -3.6%&-10.7%	?	4.7%	-2.2%&-16.2%	-7.2%	0.0%&-1.8%	?	4.7%
- O=C(NCc1ccc2c(c1)OCO2)c1cc(-c2ccccc2)c(N2CCOCC2)s1
  nt	nt	-6.8%	nt	-2.4%	-25.1%	nt	10.3%
- CC(C)Oc1ccc(C(=O)NCCNC(=O)c2ccco2)cc1
  nt	19.2%[46.1 µM]	0.8%	nt	1.1%	26.9%	?	-6.3%
- CC1CCN(CC(=O)Nc2ccc(S(=O)(=O)N3CCCC(C)C3)cc2)CC1 (stereo not given)
  nt	nt	10.5%	nt	7.2%	0.2%	nt	-10.3%
- COc1ccc(N=c2oc3c(OC)cccc3cc2C(=O)NCc2ccco2)c(OC)c1
  8.5%	?	-9.7%	20.0%	-4.4%	31.4%[activator]	?	?
- O=C(Nc1ccc2c(c1)OCO2)c1cccn(Cc2ccc(F)cc2)c1=O
  -1.9%	?	nt	-18.2%	nt	?	nt	nt
- COc1ccccc1N1CCN(C(=O)N2CCOCC2)CC1
  0.9%	0.3%	-3.2%	-10.1%	0.6%	2.8%	-8.9%	11.4%
- CCOC(=O)c1[nH]c2ccccc2c1NC(=O)C1CCCC1
  nt	nt	-17.5%	nt	1.7%	-25.8%	0.1%	-0.6%
- O=C(NC1CCCC1)C(c1ccco1)N(C(=O)c1ccco1)c1ccc(F)cc1 (stereo not given)
  nt	-27.5%	6.5%	nt	-1.0%	-13.3%	-27.1%[46.1 µM]	-1.8%
- CCc1ccc(-n2c(SCC(=O)c3ccc4c(c3)NC(=O)CO4)nc3ccccc3c2=O)cc1
  nt	?	7.5%	nt	0.8%	-1.8%	-4.5%[46.1 µM]	4.6%
- CCOc1ccccc1/C=c1\sc2ncnn2c1=O
  3.7%	2.1%	-3.0%	?	-7.0%	-11.8%	-23.5%	-88.4%
- CCCCc1ccc(NC(=O)c2ccc(=O)n(Cc3cccc(C)c3)c2)cc1
  -10.5%	?	nt	3.2%	nt	?	nt	nt
- CC(=O)Nc1ccc(S(=O)(=O)N2CCN(C(C)CCc3ccccc3)CC2)cc1 (stereo not given)
  2.1%	16.4µM*	12.5%	8.1%	-2.2%	-11.7%	13µM*	-38.4%
- CN(C)CCN(Cc1ccccc1)S(=O)(=O)c1csc(C(N)=O)c1
  -0.1%	1.6%[46.1 µM]	-11.8%	-5.5%	2.4%	15.0%&-15.0%	nt	3.7%
- O=c1oc2ccc(Cl)cc2nc1/C=C(\O)c1ccco1
  nt	-24.5%	-10.8%	nt	-5.5%	-5.4%	5.2%	-52.7%
- O=C(COC(=O)CSc1ccc2ccccc2c1)NC1CCCC1
  -14.3%	-21.8%	-22.9%	-6.0%	30.3%	-9.6%	2.8%	-6.6%
- CCCOc1cccc(C2c3c(oc4ccc(F)cc4c3=O)C(=O)N2Cc2ccc3c(c2)OCO3)c1 (stereo not given)
  -1.3%	20.4%[46.1 µM]	nt	10.9%	nt	82.7%[activator]	?	nt
- O=C(/C=C/c1ccc(Cl)c(Cl)c1)Nc1cccnc1
  nt	-18.3%[46.1 µM]	1.5%	nt	nt	21.3%	-13.8%[46.1 µM]	nt
- CCOCC(=O)Nc1nnc(COC)s1
  0.3%	-5.9%	-0.7%	-9.0%	-2.2%	19.9%	11.9%	12.5%
- CCOc1ccc(C(=O)c2cn(Cc3ccc(F)cc3)c3ccc(F)cc3c2=O)cc1
  -0.2%	3.7%[46.1 µM]	nt	3.8%	nt	-2.7%	?	nt
- COc1ccc(S(=O)(=O)NNC(=O)C(=O)NNc2ccccn2)cc1
  nt	nt	16.2%	nt	0.4%	14.0%	nt	-3.3%
- COc1ccc(S(=O)(=O)N(C)c2ccc(C(=O)Nc3c(C)n(C)n(-c4ccccc4)c3=O)cc2)cc1
  nt	?	0.4%	nt	-2.8%	0.0%	-6.5%	-12.3%
- O=C(O)C1CC(=O)N(Cc2cccs2)C1 (stereo not given)
  4.3%	5.7%	18.4%	0.1%	3.9%	21.3%	9.5%	12.0%
- O=C(NCc1ccccn1)c1ccc2nc(-c3ccco3)c(-c3ccco3)nc2c1
  22.4µM*	nt	nt	25.1µM*	-5.5%	nt	-0.8%	?
- CCOC(=O)c1c(S(=O)(=O)NCC(=O)NCc2ccccc2)c(C)n(C)c1C
  1.8%	1.8%[46.1 µM]	-6.6%	2.6%	?	39.4%&17.4%[activator]	nt	-2.2%
- O=C(COC(=O)COc1ccccc1F)NCc1ccco1
  nt	-2.8%	12.6%	nt	12.7%	-16.7%	3.8%	nt
- O=C(c1ccc2nc(N3CCOCC3)sc2c1)N1CCN(C(=O)c2ccco2)CC1
  -0.9%	nt	10.7%	-1.5%	1.6%	-6.4%	-1.0%	-12.2%
- CC1(C)CC(NC(=O)C23CCC(C)(/C(=N/O)C2)C3(C)C)CC(C)(C)N1 (stereo not given)
  4.2%	2.2%	-0.1%[3.69 µM]	-3.0%	6.4%	-10.3%	?	10.5%
- Cc1cccc(CSc2nnc3c(n2)[nH]c2ccccc23)c1
  nt	nt	-1.5%	nt	0.8%	-18.5%	nt	-0.1%
- CCCCCN(C(=O)CCC(=O)OCC(=O)c1ccc(C(C)(C)C)cc1)c1c(N)n(CCCC)c(=O)[nH]c1=O
  nt	?	24.4%	nt	-1.0%	9.2%	-0.4%	nt
- CCc1cc2c(CN3CCN(CC)CC3)cc(=O)oc2cc1O
  -18.3%	-0.2%	-8.0%	8.8%	1.8%	0.6%	10.4%	1.3%
- CCCCNC(=O)C1CCC(Cn2c(=O)c3sccc3n(CC(=O)N3CCCC3)c2=O)CC1 (stereo not given)
  2.9%	12.0%[46.1 µM]	nt	4.2%	nt	0.0%	nt	nt
- COc1ccc(-c2nnc(SCC(=O)Oc3c(C)cccc3C)o2)cc1OC
  -3.5%	1.0%[46.1 µM]	nt	10.1%	nt	-20.4%	13.3%[46.1 µM]	nt
- CC1(C)CC(C#N)(N2CCOCC2)CCO1 (stereo not given)
  -1.1%	-14.4%	-17.6%	1.7%	nt	-7.5%	2.0%	1.4%
- OCCNCc1cccc(OCc2ccccc2Cl)c1
  nt	0.9%	-10.9%	nt	-1.1%	-3.5%	?	-1.6%
- Cc1cccc(Cn2nc(C)cc2NC(=O)Cn2cc([N+](=O)[O-])cn2)c1
  nt	-22.4%[46.1 µM]	-6.9%	nt	1.5%	-9.2%	?	nt
- CCOC(=O)N1CCN(C(=O)c2cc(-c3ccc(F)cc3)[nH]c2C)CC1
  5.0%	-36.0%	2.4%	?	-0.7%	-5.9%	0.0%	4.5%
- S=C(NCc1cccs1)Nc1cccc(Cl)c1
  -5.9%	-12.0%	-8.6%	-1.9%	-17.1%	33.4%[activator]	1.4%	-9.9%
- CCS(=O)(=O)N1CCCC(C(=O)Oc2ccc(Br)cc2)C1 (stereo not given)
  nt	nt	11.0%	nt	2.2%	-7.0%	nt	4.3%
- CCOc1ccc(CCNC(=O)COC(=O)COc2ccc(Br)cc2)cc1OCC
  nt	-4.0%	1.3%	nt	-1.2%	-20.4%	9.8%	-35.9%
- CCSc1nnc2c(n1)OC(c1cc(OC)c(OC)c(OC)c1)Nc1ccccc1-2 (stereo not given)
  -5.5%	16.2%[46.1 µM]	nt	-13.3%	nt	8.4%	1.1%[46.1 µM]	nt
- COc1ccc(-c2noc(CN(C(C)C)S(=O)(=O)c3ccc(Br)cc3)n2)cc1
  -2.1%	-7.5%[46.1 µM]	nt	-7.1%	nt	0.0%	-11.7%[46.1 µM]	nt
- COc1ccccc1C(=O)Nc1nnc(SCC(=O)NC2CCCC2)s1
  nt	?	-5.0%	nt	1.8%	0.4%	11.2µM*	1.5%
- Cc1cc(/C=C2/SC(=S)N(c3ccc([N+](=O)[O-])cc3)C2=O)c(C)n1-c1cccnc1
  -11.9%	-19.2%	6.9%	15.8µM*	-3.5%	?	-25.6%	?
- Cc1ccc(S(=O)(=O)NNC(=S)Nc2ccc(Cl)cc2)cc1
  nt	2.4%	1.8%	nt	-1.5%	-8.1%	-24.4%	-15.5%

Bioassay records: PubChem, National Center for Advancing Translational Sciences (NCATS)
